Screening results deposited in PubChem by National Center for Advancing Translational Sciences (NCATS).
TRPML1 ag: activates the human TRPML1 channel; hit rate 0.12% among 410,000; Q9GZU1; TRPML1-expressing cells, Ca2+ dye fluorescence, FDSS; host cell line not named in the record; reference of the full effect not given here; activation, % (concentration not given with the values); in the data active = activation above about 50%; inconclusive = about 30% to 50%; inactive = below about 30%; further: 0% is about no effect; the text of the record puts the active cut at 80%
Target sequence (Q9GZU1 whole entry, looked up): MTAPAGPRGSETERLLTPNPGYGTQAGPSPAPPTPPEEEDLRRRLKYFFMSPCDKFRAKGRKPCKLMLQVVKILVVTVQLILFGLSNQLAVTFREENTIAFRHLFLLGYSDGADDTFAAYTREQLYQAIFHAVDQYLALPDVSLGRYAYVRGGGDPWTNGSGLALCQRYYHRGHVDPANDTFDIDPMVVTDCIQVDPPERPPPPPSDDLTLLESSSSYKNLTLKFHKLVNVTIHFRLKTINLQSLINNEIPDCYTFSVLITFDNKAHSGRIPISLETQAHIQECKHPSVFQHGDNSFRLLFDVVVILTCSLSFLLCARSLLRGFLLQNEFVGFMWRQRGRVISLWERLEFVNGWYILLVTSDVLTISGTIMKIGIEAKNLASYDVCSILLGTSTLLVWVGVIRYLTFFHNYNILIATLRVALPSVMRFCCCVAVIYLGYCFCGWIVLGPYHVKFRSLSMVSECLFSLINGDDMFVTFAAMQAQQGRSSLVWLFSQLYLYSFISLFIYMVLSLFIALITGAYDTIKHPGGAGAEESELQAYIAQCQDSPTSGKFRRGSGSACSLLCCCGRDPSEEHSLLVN
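Tetracycline-induced TRPML1-DL cells are seeded and incubated overnight before loading with a no-wash Ca2+ dye and quencher. Agonist activity is taken from the 110 s fluorescence read following compound pin-transfer on an FDSS, before EC80 54-4 challenge.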
D2 PAM: positive allosteric modulators of human D2 dopamine receptor. P14416. DiscoveRx D2 beta-arrestin cells, luminescence, 90 min; 100% = 57 uM dopamine signal. potentiation, % (concentration not given with the values). hit rate 0.23% among 360,000; active = potentiation of 50% or more; inconclusive = 30% to 50%; inactive = 30% or less;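 further: compound concentration not given in the record; tested on top of an EC20 dose of dopamine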
Target sequence (P14416 whole entry, looked up): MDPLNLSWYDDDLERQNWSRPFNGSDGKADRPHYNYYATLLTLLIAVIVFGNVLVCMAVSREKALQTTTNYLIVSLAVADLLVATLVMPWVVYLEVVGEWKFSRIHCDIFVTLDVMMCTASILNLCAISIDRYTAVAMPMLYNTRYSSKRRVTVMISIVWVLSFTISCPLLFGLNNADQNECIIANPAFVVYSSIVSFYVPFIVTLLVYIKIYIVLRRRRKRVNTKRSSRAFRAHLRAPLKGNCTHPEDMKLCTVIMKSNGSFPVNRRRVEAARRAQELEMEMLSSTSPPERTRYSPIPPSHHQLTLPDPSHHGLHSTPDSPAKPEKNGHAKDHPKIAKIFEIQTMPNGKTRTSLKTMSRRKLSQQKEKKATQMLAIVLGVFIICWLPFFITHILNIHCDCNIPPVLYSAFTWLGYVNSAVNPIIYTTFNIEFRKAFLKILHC
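PathHunter D2 cells, attached overnight at 37 deg C, received compound in DMSO plus dopamine at EC20 (50 nM final) for 90 min at 37 deg C. Beta-arrestin recruitment was read as luminescence after 1 h with detection reagent at ambient temperature.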
PINK1 expr mod: changes PINK1 expression; Potency, µM (titrated, usually from 76.6 µM), inactives show at the top dose activation (PINK1 increase), actives largely listed as activators; hit rate 0.2% among 410,000; PINK1 immunofluorescence, high-content cytometry, 24 h; active = well fitted activation curve with a large enough effect; inconclusive = small, poorly fitted or top-dose-only effect; inactive = flat fitted curve, though single readings scatter; cell line not stated here;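 further: potency means the concentration at half of the fitted maximal effect; % of control where 0% means no effect; nearly all actives have a fitted effect of over 65% in size; a mitochondrial uncoupler was the plate control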
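Decision-based qHTS: stable cells, 24 h exposure to five compound concentrations, CCCP as control. Fixed cells stained for PINK1 plus nuclear, mitochondrial and cell markers, cytometer read.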
CtBP-E1A inh: inhibitors of CtBP/E1A interaction. hit rate 0.49% among 340,000. AlphaScreen GST-E1A/His-CtBP binding, 1536-well; hits give low values; control for the full effect not named in the record. activity change, % (concentration not given with the values). AID 651724; in the data active means activity change below about -65%; inconclusive means about -30% to -65%; inactive means above about -30%; further: on the % scale 0 is the no-effect control and ±100 the full control effect
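Protein mix (5X: 125 nM each GST-E1A, His-CtBP) was incubated with pinned compound 2 h at 37 deg C in dark, in 50 mM Tris pH 8.0 buffer with 300 mM NaCl. Glutathione donor and nickel acceptor beads followed; AlphaScreen signal read after 1 h.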
D2 ag: human D2 receptor agonism in beta-arrestin assay; hit rate 0.084% among 360,000; DiscoveRx PathHunter D2 beta-arrestin, luminescence, 90 min; 100% = 57 uM dopamine signal; activation, % (no concentration beside the values); AID 624465; in the data active = activation above about 40%; inconclusive = about 15% to 40%; inactive = below about 15%; further: compound concentration not given in the record; the text of the record calls up to 30% inactive
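DiscoveRx PathHunter D2 beta-arrestin cells (2,100/well) attached overnight, then compound-stimulated 90 min at 37 C in HBSS/10 mM HEPES/0.1% Tween-20 buffer; beta-galactosidase complementation read by luminescence after 1 h at ambient temperature. Dopamine 57 uM final (EC100) as control.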
Six1-Eya2 blk: inhibitors of human Six1/Eya2 interaction. AlphaScreen GST-Six1/His-Eya2 binding, biochemical; hits give low values; control for the full effect not named in the record. activity change, % (no concentration beside the values). hit rate 0.56% among 360,000; in the data active = activity change below about -65%; inconclusive = about -30% to -65%; inactive = above about -30%; further: on the % scale 0 is the no-effect control and ±100 the full control effect; compound concentration not given in the record
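GST-Six1 + His-Eya2 (5X stock: 250/500 nM); Tris pH 8.0, 300 mM NaCl, 0.05% BSA, 0.02% Tween 20; GSH donor/Ni acceptor beads; 1 h 37 °C dark; AlphaScreen readout.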
* hit, by the source's call; u = inconclusive; x = not tested or not shown; & = joins results of further samples; [ ] = remark or other dose.

mol	D2 PAM	Six1-Eya2 blk	TRPML1 ag	PINK1 expr mod	CtBP-E1A inh	D2 ag
COC(=O)N/N=C/c1cccc([N+](=O)[O-])c1	-18.3	0.3	-0.9	1.5%	4.6	-2.3
CCCNC(=O)N1CCC(c2ccc3c(c2)OCO3)CC1	2.3	1.4	0.4	0.3%	1.3	4.4
NNC(=O)c1cc(-c2ccco2)[nH]n1	-5.6	-6.0	0.3	1.1%	x	2.5
Cc1ccccc1CN1C(=O)c2ccccc2C1c1nnnn1Cc1ccccc1 (stereo not drawn)	x	1.7	-0.9	-0.1%	4.2	x
Cc1ccc(-c2nnc(SCC#CCOC(=O)c3cccs3)o2)cc1	-4.0	17.8	0.6	-4.2%	35.2	-0.7
CC(C)(C)c1ccc2c(c1)OC(C(=O)N/N=C\c1ccncc1)CO2 (stereo not drawn)	-5.8	-10.6	1.1	4.8%	-12.5	-2.0
Cc1nc2ncccn2c1-c1csc(NCc2ccco2)n1	-20.3	-20.2	1.1	4.3%	-19.6	0.8
Cc1c(C)c2ccc(OCc3ccc(C(=O)O)o3)c(C)c2oc1=O	-2.5	-17.7	0.7	-2.2%	-23.0	1.7
O=C(NC1CCCN(c2ccc(C(F)(F)F)cn2)C1)c1ccnc(Cl)c1 (stereo not drawn)	-11.9	1.4	1.7	u	-0.5	-4.2
CCOCCCn1c(SCC(=O)NC(C)(C)C)nc2ccccc2c1=O	-2.5	-2.1	5.0	-2.4%	-2.5	0.1
COc1ccc(NC(=O)CCCCC(=O)Nc2ccc(OC)cc2OC)c(OC)c1	-2.1	0.5	1.3	1.5%	-7.3	-1.6
COc1cccc(NC(=O)COC(=O)c2ccc3c(c2)OCO3)c1	-3.0	4.7	-0.6	-0.4%	-1.3	-0.3

Other structures
mol	D2 PAM	Six1-Eya2 blk	TRPML1 ag	PINK1 expr mod	CtBP-E1A inh	D2 ag
CSCCC(NC(=O)c1ccccc1)C(=O)NC1CC1 (stereo not drawn)	-16.0	-0.4	-0.9	5.3%[38.3 µM]	-0.9	-2.9
Cc1cccc(C)c1NC(=O)CNC(=O)c1cnccn1	-1.5	-6.6	0.4	-0.5%	-2.1	-4.3
COc1ccc(NC2CCCN(C(=O)c3csc(C)n3)C2)cc1 (stereo not drawn)	21.9	6.6	-0.1	1.7%	-6.9	2.2
COc1cc(C(=O)Nc2cccc(-c3nc4cc(C)cc(C)c4o3)c2)cc(OC)c1OC	5.7	6.3	0.3	23.9%[38.3 µM]	7.4	-0.7
CCNC(=O)C1CCCN(C(=O)c2cccs2)CC1 (stereo not drawn)	-6.4	10.4	-0.4	0.2%	6.7	5.3
CCCC(=O)Nc1c2c(nn1-c1ccc(OC)cc1)CS(=O)C2 (stereo not drawn)	-10.1	5.0	-0.2	-1.0%	-2.4	0.7
Cc1cc(C)nc(NS(=O)(=O)c2ccc(NC(=O)c3ccco3)cc2)n1	-11.7	4.1	1.2	-3.8%	15.1	-0.4
CC(=O)Nc1cccc(NC(=O)c2ccc3c(c2)CCN3S(=O)(=O)c2ccccc2)c1	2.8	-2.7	-0.5	2.3%	-4.3	6.2
COc1ccc(C(Sc2ccccc2)c2ccccc2)cc1OC (stereo not drawn)	5.8	28.0	0.5	2.5%	24.1	-1.1
COc1ccc(-c2noc(-c3ccccc3C(=O)NCc3ccco3)n2)cc1	-20.1	-5.6	2.0	9.7%	-6.1	-7.6
FC(F)Sc1ccc(NC2=NCCCCC2)cc1	-9.9	20.8	0.4	3.7%	x	-3.2
COc1cccc(N2CCN(c3c4c(nc5ncnn35)CCC4)CC2)c1	3.7	u	0.9	-1.7%[38.3 µM]	u	-0.2

The last 2 compounds of the section before are carried over, then new ones follow:
mol	D2 PAM	Six1-Eya2 blk	TRPML1 ag	PINK1 expr mod	CtBP-E1A inh	D2 ag
FC(F)Sc1ccc(NC2=NCCCCC2)cc1	-9.9	20.8	0.4	3.7%	x	-3.2
COc1cccc(N2CCN(c3c4c(nc5ncnn35)CCC4)CC2)c1	3.7	u	0.9	-1.7%[38.3 µM]	u	-0.2
CC(=O)c1ccc(-c2ccc(C(=O)NCC(c3ccco3)N(C)C)o2)cc1 (stereo not drawn)	-13.8	-14.1	1.0	-1.1%	-10.4	-3.5
Cc1noc(NS(=O)(=O)c2ccc(NC(=O)CCn3c(=O)oc4ccccc43)cc2)c1C	-5.2	3.4	0.0	5.6%	2.8	-7.3
Cc1ccnc(NC(=O)c2cccc(NC(=O)COc3ccccc3)c2)c1	-7.8	-1.9	0.5	-0.5%[38.3 µM]	6.9	-0.1
O=C(Nc1cccn2ncnc12)c1ccc(Cl)cc1	-1.3	1.6	-1.4	-2.7%	5.2	-2.7
Cc1cccc(C(=O)NC2CCN(CC(=O)N3CCOCC3)CC2)c1	-3.8	8.9	1.1	-0.6%	4.5	-1.9
CC(C(=O)OCC(=O)NC1CCCC1)N1C(=O)c2ccccc2C1=O (stereo not drawn)	9.1	-1.6	0.0	-2.4%	2.7	2.9
CCN1C(=O)C(O)(CC(=O)c2cccc(-n3cccc3)c2)c2ccccc21 (stereo not drawn)	1.0	-15.6	0.4	5.5%	-29.3	2.5
Cc1ccc(NS(=O)(=O)c2cccc(C(=O)N(C)Cc3cccs3)c2)cc1	-11.1	0.8	-1.0	5.0%	1.7	-1.7
CCOC(=O)c1[nH]c(=O)[nH]c1COC(=O)c1cc2ccccc2o1	5.1	-2.1	-1.2	-0.3%	8.8	-0.1
COc1ccc(C(CC(=O)Nc2ncccc2C)N2Cc3ccccc3C2=O)cc1 (stereo not drawn)	-4.2	11.4	-0.6	1.1%	-2.4	-4.6
O=S(=O)(NCC1CCCO1)c1ccc(S(=O)(=O)N(Cc2ccccc2F)C2CCCCC2)cc1 (stereo not drawn)	5.8	-0.1	1.6	-0.8%[38.3 µM]	-1.9	-2.3
CCCOc1ccc(/C=c2\sc3nc(-c4ccco4)nn3c2=O)cc1OCC	-11.6	-13.7	0.5	7.8%	-3.3	-3.2

(list continues)
mol	D2 PAM	Six1-Eya2 blk	TRPML1 ag	PINK1 expr mod	CtBP-E1A inh	D2 ag
CCc1ccc(S(=O)(=O)Nc2cccc(-c3ccc4nnc(C)n4n3)c2)s1	6.3	-8.1	0.2	5.2%	-0.2	-0.1
COC(=O)[C@H](NC(=O)c1cc(-c2ccccc2)nc2ccccc12)c1ccccc1	-4.0	-0.1	0.4	0.4%	2.2	-5.7
COc1ccc(S(N)(=O)=O)cc1C(=O)N1CCCC1	-2.6	-0.6	-0.3	0.1%	x	6.9
CC1=NOC(=O)/C1=C\c1ccc2c(c1)OCO2	3.1	2.2	-0.3	5.6%	3.1	-1.6
CCN(CC)C(=O)c1sc(NC(=O)Cc2ccc(OC)cc2)c(C#N)c1C	-16.6	-1.2	-1.2	-1.6%	-1.0	0.4
CC(C)S(=O)(=O)C1=NSC2=NC(=O)/C(=C\c3ccc(-c4cccc(C(=O)O)c4)o3)C(=N)N21	-17.2	u	4.9	-1.9%	x	-10.5
O=C(CSc1nnc(-c2cccnc2)n1Cc1ccco1)c1ccc(Cl)cc1	-6.3	-1.3	-0.3	12.4%[38.3 µM]	1.9	-0.9
Cn1c(SCCC(=O)O)nnc1-c1ccncc1	0.0	6.3	0.8	0.5%[38.3 µM]	4.6	2.7
O=C(CN1C(=O)COc2ccc(S(=O)(=O)N3CCCC3)cc21)N1CCCC1	-6.2	-2.5	0.5	-1.1%	-1.3	-2.6
COc1ccccc1CNS(=O)(=O)c1cc2c3c(c1)CCC(=O)N3CCC2	-3.2	9.6	0.4	0.7%	-12.6	-4.6
Cc1c(C(c2ccc(F)cc2)c2c(C)n(C)n(-c3ccccc3)c2=O)c(=O)n(-c2ccccc2)n1C	11.9	1.9	x	-0.1%	x	3.7
CCOc1ccc(NC(=O)CN(C)C(=O)c2ccc3c(c2)C(=O)N(CCC(C)C)C3=O)cc1OCC	0.9	-0.8	2.6	-0.7%	9.2	-3.2

The results go on.
mol	D2 PAM	Six1-Eya2 blk	TRPML1 ag	PINK1 expr mod	CtBP-E1A inh	D2 ag
O=C(CCc1nnc(COc2ccccc2)o1)NCc1ccc(Cl)s1	-7.0	4.6	0.8	-1.4%	0.0	5.9
O=C(O)c1ccc(C2SCC(=O)N2Cc2ccco2)cc1 (stereo not drawn)	7.8	16.5	-0.6	-0.8%	10.6	2.8
COC(=O)c1sc(-c2ccccc2)cc1NC(=O)C1CC1	3.8	32.4	3.3	6.4%	9.2	1.7
COc1ccccc1-c1cccc(-c2nc(C(=O)Nc3nccs3)cc3c2[C@@H](CCO)N(C(=O)CC2CC2)C3)c1	x	-28.3	-0.2	2.7%	-5.0	x
Cc1cc(C)cc(NC(=O)CCCn2nc(C)c3c(C)n(-c4ccccc4)nc3c2=O)c1	-11.3	-0.7	0.2&2.2	-1.9%&0.3%	x	-5.5
CC1(C)NC(=O)N(CC(O)Cn2c3ccccc3c3ccccc32)C1=O (stereo not drawn)	-1.5	7.7	0.3	0.2%	8.1	-1.6
COC(=O)CNC(c1ccccc1Cl)c1cc(Br)ccc1NC(=O)CCN1CCOCC1 (stereo not drawn)	-18.2	5.9	0.4	-1.5%	-11.4	-0.6
CCCCn1nnnc1C(CC)N1CCN(C/C=C/c2ccccc2)CC1 (stereo not drawn)	-13.6	4.9	-0.3	-0.6%	-20.6	-4.0
CCC(CO)Nc1ccn2nc(-c3ccccc3)cc2n1 (stereo not drawn)	-3.7	-9.5	-0.5	1.3%	-4.0	3.5
COc1ccc(CN2CCNC(=O)C2CC(=O)N(C)Cc2nccs2)c(OC)c1 (stereo not drawn)	-2.5	3.4	0.5	-0.3%	-0.8	0.4
CCOC(=O)CC1COCCN1C(=O)c1cc(COc2ccccc2SC)on1 (stereo not drawn)	-12.7	6.2	-0.8	1.8%	0.6	-1.3
Cc1ccc2[nH]c(=O)c(CN(c3cccc(C)c3C)S(=O)(=O)c3ccccc3)cc2c1	-9.0	3.7	-1.2	5.1%	1.0	0.5

Other entries follow:
mol	D2 PAM	Six1-Eya2 blk	TRPML1 ag	PINK1 expr mod	CtBP-E1A inh	D2 ag
COc1cc(C)c(Br)cc1S(=O)(=O)NCCCN1CCOCC1	-10.1	0.0	-0.5	0.4%	-0.5	-2.5
Cc1cc(OCC(=O)OCC(=O)NC2CCS(=O)(=O)C2)ccc1Cl (stereo not drawn)	0.2	2.4	-1.1	-0.7%	4.9	-0.6
CCOC(=O)C1CCCN(C(=O)Cn2c(=O)c3cccn3c3cccnc32)C1 (stereo not drawn)	-7.3	0.6	0.4	0.4%	4.6	-2.3
COc1cc(OC)nc(Nc2nc(C(N)c3ccccc3Cl)cs2)n1 (stereo not drawn)	-8.3	-28.9	-0.4	5.9%	-30.0	5.0
Cc1ccc(C)c(NC(=O)CN(C)C(=O)c2ccc(S(=O)(=O)N(C)c3ccccc3)cc2)c1	-2.8	-0.3	4.2	1.9%	-4.3	3.4
O=C(NC1CCCC1)C(c1cccs1)N(CC1CCCO1)C(=O)Cc1cccs1 (stereo not drawn)	-13.1	-3.0	1.2	-1.0%	3.0	-4.9
COc1ccc(NC(=O)C2CCN(C(=O)Nc3ccccc3)CC2)cc1S(=O)(=O)N(C)C	-39.0	-0.9	-0.3	-0.3%	11.3	-1.6
CC(C)(C)OC(=O)N1CCCN(C(=O)Nc2ccc(C(F)(F)F)cc2)CC1	-4.9	-0.4	1.1	-1.6%	18.8	-2.9
